# Bioassay records deposited in PubChem by National Center for Advancing Translational Sciences (NCATS).
# HTT prom inh = inhibits huntingtin promoter activity; HEK293 HTT promoter firefly luciferase reporter (activity 0% = vehicle and -100% = no light), 24 h; 0.93% of 48,000 active; Potency, µM (top dose mostly 57.5 µM), inactives show at the top dose activity change, negative = inhibition, actives largely listed as inhibitors; active = well fitted inhibition curve with a large enough effect; inconclusive = small, poorly fitted or top-dose-only effect; inactive = no such curve, though single readings can be large or run the other way; note: nearly all actives have a fitted effect of over 50% in size
#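 HEK293 Fluc reporter, 2,500 cells/well, 24 h pre-culture; cpds up to 57.5 uM final, 24 h 37 degrees C; Dual-Glo, 10 min RT; normalized vehicle = 0%, zero RLU = -100%.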
# PMP22 txn = modulators of PMP22 gene transcription in S16 Schwann cells. S16 Pmp22-F2sN Schwann cells (luciferase reporters placed in the Pmp22 gene), FLuc/NLuc coincidence luminescence, 24 h. Potency, µM (series often up to 57.5 µM), without a hit: at the highest dose activity change, negative = inhibition, hits mostly inhibitors. 2% of 43,000 active; active = clear falling dose curves in both reporters; inconclusive = both reporters move, but less clearly or upward; inactive = either reporter flat; the % is the NLuc reporter signal; note: % is set by controls: 0 for no effect and ±100 for the full control effect; some results filed as inactive show a strong effect at the top dose
#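 Luminescent read-out of sequential FLuc and NLuc signals from a reporter embedded in the Pmp22 3' UTR of S16 Schwann cells, taken after 24 h compound exposure at 37C; compounds reducing both signals score as inhibitors of expression.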
# * marks the source's active call; other numbers are inactive results; ? = inconclusive; . = not tested or not shown; [ ] = remark or other dose. Potency is the fitted concentration of half-maximal effect.
# Each structure is followed by: HTT prom inh	PMP22 txn
- COc1ccc(CCNC(=O)c2cc(Sc3cccc(Cl)c3)nc3ccccc23)cc1OC
  ?	?
- COc1ccc(S(=O)(=O)NCC(c2ccc(N(C)C)cc2)N2CCOCC2)cc1 (stereo not given)
  -9%	-22%
- O=C(Cn1nc(Cc2cccnc2)c2ccccc2c1=O)Nc1ccc(F)c(Cl)c1
  ?	-13%
- C=Cc1ccc(Cn2c(=O)n(-c3ccc(C)cc3)c(=O)c3c2c2cc(OC)ccc2n3C)cc1
  -6%	?
- O=C1CCSC2(C(=O)N(Cc3ccc(F)cc3)c3ccccc32)N1c1ccccc1 (stereo not given)
  -21%	?
- CCOc1ccc(OCC)c(NS(=O)(=O)c2ccc3[nH]c(=O)ccc3c2)c1
  -16%	-1%
- CCCCN(CC)CCCNC(=O)c1cc2c(=O)[nH]c3ccccc3c2s1
  -13%	?
- CSc1ccccc1NC(=O)C1=CC(c2ccc3c(c2)OCO3)=NS(=O)(=O)N1C
  -25%	7%
- COCCNC(=O)Nc1cc(C(=O)NCc2ccc(C(C)C)cc2)ccc1N1CCCC1
  ?	-17%
- COc1ccc(-c2cc3nccc(-c4cc(Cl)c(C)cc4O)n3n2)cc1
  -24%	-21%
- O=C(NCc1ccccc1Cl)c1ccc(CS(=O)(=O)c2ccc(Br)cc2)o1
  ?	-25%
- CCOC(=O)CC(NC(=O)CCc1c(C)nc2cc(-c3ccccc3)nn2c1C)c1ccc(C)cc1 (stereo not given)
  2.5µM*	-25%
- O=[N+]([O-])c1cccc(S(=O)(=O)NCCNS(=O)(=O)c2cccc([N+](=O)[O-])c2)c1
  -17%	.
- CN1CCN(C2=Nc3ccccc3Sc3ccc(Cl)cc32)CC1
  8%	.
- Cc1ccc(C)c(Cn2c3ccccc3c3cnn(CC(=O)NCCc4ccccc4)c(=O)c32)c1
  0%	?

# Following part.
# Each structure is followed by: HTT prom inh	PMP22 txn
- CCCCOc1ccc(C(=O)NCCS(=O)(=O)N2CCN(c3ccc(F)cc3)CC2)cc1
  -15%	0%
- COc1ccc(C)cc1NC(=O)c1nnn(-c2c(C)cccc2C)c1C
  ?	-24%
- CCOC(=O)c1ccc(NC(=O)C(CC)Sc2nc3ncccc3[nH]2)cc1 (stereo not given)
  -18%	21%
- CCN(CC)CCCNC(=O)CCc1c(C)n(CC)c2cc(-c3ccccc3OC)nn2c1=O
  -9%	5%
- COc1cc(-c2noc(-c3ccc(NCCc4ccccc4)c([N+](=O)[O-])c3)n2)cc(OC)c1OC
  11%	-13%
- COC(=O)c1scc(-c2ccc(C)cc2)c1S(=O)(=O)Nc1cc(OC)c(OC)c(OC)c1
  7%	-11%
- CCN(CC)CCNc1ccc(CO)c2sc3ccccc3c(=O)c12
  -28%	.
- CCOc1cc(C(c2c(C)[nH]n(-c3ccccc3)c2=O)c2c(C)[nH]n(-c3ccccc3)c2=O)ccc1O
  ?	9.5µM*
- CC(C)(C)c1ccc(C(=O)N2CCCC(c3nc4c(nnn4Cc4cccc(F)c4)c(=O)[nH]3)C2)cc1 (stereo not given)
  ?	-11%
- Cc1ccc(NC(=O)CCOc2ccccc2)cc1
  48%[activator]	-12%
- CC1=C(c2ccc(Cl)cc2)S(=O)(=O)N=C1N1CCN(c2cccc(C)c2C)CC1
  -7%	0%
- Cc1nnsc1C(=O)Oc1ccc(C(C)C)cc1
  -7%	0%
- CCOC(=O)CSc1nc2c(sc3ccccc32)c(=O)n1Cc1ccc(C)cc1
  -8%	?
- Cc1ccc(NC(=O)Cn2cc3c(n2)CCCCC3)cc1
  -9%	-5%
- COc1cc(NC(=O)c2nn(C)c3c2COc2ccccc2-3)cc(OC)c1OC
  -11%	-20%

# More results.
# Each structure is followed by: HTT prom inh	PMP22 txn
- CCOc1ccccc1NC(=O)CN1C=NS(=O)(=O)c2ccccc21
  -17%	-4%
- CCOC(=O)C1CCN(C(=O)c2ccc(C)c(NC(=O)c3nsc4ccccc34)c2)CC1
  -23%	?
- Cc1cccc(N2CCN(C(=O)C3CCN(C(=O)c4cc5sccc5n4C)CC3)CC2)c1C
  ?	?
- Cc1ccc(C)c(N2CCN(C(=O)Cc3c(C(=O)O)c(C)cn3C)CC2)c1
  -9%	1%
- CCN(C(=O)CN1C(=O)c2ccccc2Sc2ccc(C(=O)OC)cc21)c1cccc(C)c1
  2%	?
- O=C(NCCCc1nc2ccccc2n1Cc1ccccc1)C1CCCCC1
  -29%	?
- CCCSc1oc(-c2ccco2)nc1S(=O)(=O)c1ccc(Cl)cc1
  ?	-15%
- Cc1ccc2c(c1)c1c(c(=O)n(Cc3ccccc3)c(=O)n1CC(=O)Nc1ccccc1F)n2C
  -2%	-17%
- CCc1ccc(Nc2nc3ccccc3c3nnc(C)n23)cc1
  -11%	11%
- CCCc1cc(=O)[nH]c(SCc2nc(-c3ccc(C)cc3)no2)n1
  -4%	-1%
- COc1cc(NC(=O)N2CCC(CN3CCc4ccccc4C3)CC2)cc(OC)c1
  -23%	-1%
- COC(=O)C1=C(CS(=O)(=O)c2cc(Cl)ccc2OC)NC(=O)NC1c1ccccc1 (stereo not given)
  ?	-11%
- COc1ccc(C(=O)N2CCN(C(=O)COc3ccccc3)CC2)cc1OC
  -4%	11%
- COc1cc(Cl)c(C)cc1NC(=O)CCn1c(=O)c2cccn2c2cccnc21
  0%	-5%
- COc1ccc(Cc2nc3c4cnn(-c5ccccc5Br)c4ncn3n2)cc1
  -1%	-23%

# (more compounds)
# Each structure is followed by: HTT prom inh	PMP22 txn
- NC(N)=N/N=C/c1c(Cl)cccc1Cl
  -3%	.
- CCc1c(C)nc2nncn2c1Nc1ccc(C(C)C)cc1
  ?	?
- Cc1ccc(-c2nc(N3CCN(c4ccccc4Cl)CC3)c3ccccc3n2)cc1
  -7%	-36%
- CC(=O)N1c2ccc(S(=O)(=O)N3CCN(c4ccc(C)cc4C)CC3)cc2CC1C (stereo not given)
  ?	-8%
- Cc1ccc(C(=O)N2CCC(c3c[nH]c4ccccc34)(c3c[nH]c4ccccc34)CC2)cc1
  ?	?
- COc1cccc(NC(=O)c2oc3ccc(S(=O)(=O)N(C)C4CCCCC4)cc3c2C)c1
  ?	11%
- Cc1cc(Cl)ccc1OCCSc1nnc(-c2cccs2)o1
  -20%[11.5 µM]	3%
- Cc1ccc(C)c(S(=O)(=O)c2nnn3c2nc(N2CCOCC2)c2sccc23)c1
  -8%	?
- COc1ccc(S(=O)(=O)N(CC(=O)Nc2cc(C)cc(C)c2)c2ccc(Cl)cc2)cc1
  ?	-24%
- Cc1cccc(Cn2cccc2CNS(=O)(=O)c2ccccc2F)c1
  -8%	-14%
- Cc1cccc(NC(=O)CCCCCn2c(=O)[nH]c3ccsc3c2=O)c1
  -12%	6%
- Cc1ccc(-c2cnc(NCc3c(F)cccc3Cl)n2C)cc1
  22%	-114%
- Cc1ccc(-c2nnc(Nc3cccc(O)c3)c3ccccc23)cc1S(=O)(=O)N1CCOCC1
  1%	0%
- COc1ccc(C)cc1NC(=O)COCc1cc(-c2ccc(F)cc2)on1
  -4%	?
- CCn1cc2nc(SCc3cc(C)ccc3C)n(Cc3ccc(Cl)cc3)c(=O)c2n1
  2%	?

# Carrying on.
# Each structure is followed by: HTT prom inh	PMP22 txn
- CC(C)CCNC(=O)CSCc1cnn(-c2ccccc2)c1-n1cccc1
  -23%	0%
- COc1ccc(Cc2nc3ccc(C(=O)NCc4cc(Br)ccc4OC)cc3o2)cc1
  -30%	?
- Cc1cn2c(=O)cc(COc3ccccc3NC(=O)c3ccc(Cl)cc3)nc2s1
  -7%	1%
- Cc1cc(N2CCC(C(=O)Nc3ccc(F)cc3F)CC2)n2nc(C)c(-c3ccc(Cl)cc3)c2n1
  -10%	4%
- CCc1ccc(CNc2ncc(-c3cccc(OC)c3)n2C)cc1
  -29%	?
- Cc1nc2ccccc2c(=O)n1-c1ccc(NC(=O)c2cccc([N+](=O)[O-])c2)cc1
  -19%	?
- C=Cc1c(C)c2cc3nc(cc4[nH]c(cc5nc(cc1[nH]2)C(C)=C5CCC(=O)O)c(CCC(=O)OC)c4C)[C@@]1(C)C3=CC=C(C(=O)OC)[C@H]1C(=O)OC
  ?	.
- CCCN(CCC)C(=O)Cn1c(=O)n(-c2ccccc2)c(=O)c2c3c(sc21)CCCC3
  -17%	-10%
- O=C(O)c1ccc(NC(=O)c2ccc(Cl)c(S(=O)(=O)N3CCCCCC3)c2)cc1
  -8%	-9%
- Cc1cccc(NC(=O)Cn2nc(-c3ccccc3)c3cnc4ccccc4c32)c1
  -32%	?
- COc1cc(NC(=O)CSc2c3c(nc4ccccc24)CCC3)cc(OC)c1OC
  -26%	?
- Nc1c(C(=O)c2ccccc2)sc(Nc2ccc(Cl)c(Cl)c2)c1C(=O)Nc1ccccc1
  28µM*	?
- CCOC(=O)c1c(C)[nH]c(C)c1S(=O)(=O)N(C)CC(=O)N1CCN(c2cccc(C)c2C)CC1
  -40%	?
- Cc1nn(-c2ccccc2)c2c1N(CC(=O)N1CCN(c3ccccc3F)CC1)C(=O)CS2
  -20%	?
- COc1ccc(OCc2ccc(-c3nc(C#N)c(NCc4ccccc4)o3)o2)cc1
  24%	-38%

# Gathered by group, those above containing a nitro group on carbon (three)
# Each structure is followed by: HTT prom inh	PMP22 txn
- O=[N+]([O-])c1cccc(S(=O)(=O)NCCNS(=O)(=O)c2cccc([N+](=O)[O-])c2)c1
  -17%	.
- COc1cc(-c2noc(-c3ccc(NCCc4ccccc4)c([N+](=O)[O-])c3)n2)cc(OC)c1OC
  11%	-13%
- Cc1nc2ccccc2c(=O)n1-c1ccc(NC(=O)c2cccc([N+](=O)[O-])c2)cc1
  -19%	?

# Further entries.
# Each structure is followed by: HTT prom inh	PMP22 txn
- COc1ccc(OC)c(-c2noc(N3CCN(c4cccc(C(F)(F)F)c4)CC3)n2)c1
  -24%	?
- CN(C(=O)C(Cl)Cl)c1ccc(OC(=O)c2ccco2)cc1
  6%	.
- CCOc1ccc(C(=O)c2cn(Cc3ccc(Cl)cc3)c3cc(OC)c(OC)cc3c2=O)cc1
  ?	?
- CC(C)(C)c1nnc(NS(=O)(=O)c2ccc(N)cc2)s1
  -2%	.
- COc1cc(OC)c(NC(=O)c2cc(C(C)=O)n3ccccc23)cc1Cl
  ?	-16%
- Cc1cccc(NC(=O)Cn2cc(C(=O)c3ccco3)c3ccccc32)c1C
  ?	?
- COc1ccccc1CNS(=O)(=O)c1cc2c3c(c1)CCN3C(=O)CC2
  -32%	9%
- O=C1NC(=O)C(c2ccccc2)(c2ccccc2)N1
  -10%	.
- CC(C)CCNC(=O)CN1C(=O)CCn2nc(-c3cn(C)c4ccccc34)cc21
  12%	?
- Cc1ccc(NC(=O)c2oc3ccc(S(=O)(=O)N4CCCCCC4)cc3c2C)c(C)c1
  -10%	-37%
- CC(=O)N1CCc2c(sc3c2c(=O)n(CCc2ccccc2)c(=O)n3CC(=O)Nc2ccccc2F)C1
  -8%	?
- Cc1ccc(-c2noc(-c3nnn(CC(=O)Nc4cc(Cl)ccc4C)c3N)n2)cc1
  4%	-1%
- O=C(c1cnc2c(c1)COc1ccc(Cl)cc1-2)c1ccccc1O
  -5%	?
- Brc1ccc(-c2noc(-c3ccccc3)n2)o1
  35%[activator]	-14%
- COc1ccc(N2CCN(C(c3ccccc3F)c3sc4nc(-c5ccco5)nn4c3O)CC2)cc1 (stereo not given)
  -2%	26%

# Grouped by structure: the compounds so far containing bromine.
# Each structure is followed by: HTT prom inh	PMP22 txn
- O=C(NCc1ccccc1Cl)c1ccc(CS(=O)(=O)c2ccc(Br)cc2)o1
  ?	-25%
- COc1ccc(Cc2nc3c4cnn(-c5ccccc5Br)c4ncn3n2)cc1
  -1%	-23%
- COc1ccc(Cc2nc3ccc(C(=O)NCc4cc(Br)ccc4OC)cc3o2)cc1
  -30%	?
- Brc1ccc(-c2noc(-c3ccccc3)n2)o1
  35%[activator]	-14%

# The results go on.
# Each structure is followed by: HTT prom inh	PMP22 txn
- CCNc1ccc(-c2nc(-c3ccco3)no2)cc1[N+](=O)[O-]
  63%[activator]	?
- CCOC(=O)c1c(-c2ccccc2)oc2ccc(OCc3ccc(C)cc3)cc12
  -9%	0%
- CC(=O)N1c2ccccc2C(=O)C1N1CCN(c2ccc(F)cc2)CC1 (stereo not given)
  -24%	-2%
- Cc1ccc2oc(C(=O)Nc3c(C(=O)Nc4cccc(Cl)c4)oc4ccccc34)cc(=O)c2c1
  -11%[11.5 µM]	-8%
- CC(C)Oc1cccc(C2CC(=O)Nc3cc4c(cc32)OCO4)c1 (stereo not given)
  ?	4.3µM*
- CCCN1CCN(CCCNC(=O)c2ccc3c(c2)sc2nc(-c4ccc(OC)cc4)cn23)CC1
  4%	?
- COc1ccc(N(C)C(=O)Cn2cc(S(=O)(=O)N3CCN(c4ccccc4F)CC3)c3ccccc3c2=O)c(OC)c1
  -23%	-17%
- O=C(NCc1ccccc1)c1ccc2c(c1)N(Cc1ccccc1F)C(=O)c1ccccc1S2=O (stereo not given)
  -19%	?
- COc1ccc(-c2nc3sc(CCNC(=O)C(=O)Nc4ccc(C)c(F)c4)c(C)n3n2)cc1
  -37%	7%
- Cc1ccccc1-c1noc(CSc2nc3ccccc3[nH]2)n1
  ?	-73%
- CC(Oc1ccccc1)C(=O)Nc1ccc(C(=O)OCc2cc(=O)n3nc(C4CC4)sc3n2)cc1 (stereo not given)
  ?	?
